NPYLR7 ag – agonists of mosquito NPYLR7 receptor, primary screen, cell-based, Aedes aegypti, calcium fluorescence, mosquito biting behavior | 270,000 tested, 0.15% active | Aedes aegypti neuropeptide Y-like receptor 7 (NPYLR7) | HEK293T NPYLR7/Galpha15, GCaMP6s calcium fluorescence | activation, % at 10 µM; in the data active = activation above about 40%;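 note: 0% = vehicle and 100% = reference agonist at the receptor; some compounds past the cut are filed as inactive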
NPYLR7 ag max-min – also measured in NPYLR7 ag; calls as there; activation, %; measured here: Max-Min RFU normalised activation; some inactives read as strong as hits;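 span of the calcium signal over five minutes; 0% = vehicle and 100% = native peptide agonist; compound fluorescence can raise it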
Numbers without * were called inactive; & = joins results of further samples. The list is partial; count on the stated rates, not on these rows.

entry | canonical_smiles | NPYLR7 ag max-min | NPYLR7 ag
1 | CS(=O)(=O)c1ccc(CN2CCCC(Cc3nc4ccccc4[nH]3)C2)cc1 (stereo not given) | 10 | 0
2 | O=C(NCCc1ccc(Cl)s1)Nc1ccccn1 | 5 | 12
3 | COc1ccc(-c2nc3ccc(C)cn3c2NC(C)(C)CC(C)(C)C)cc1 | 1 | -4
4 | O=C(OCc1csc(C2CCCCC2)n1)c1ccc(NC2CC2)nc1 | 10 | 1
5 | CCN1CCN(c2nc(N3CCOCC3)nc(N)c2[N+](=O)[O-])CC1 | 0 | 2
6 | CCC1=NN(C(=O)Cc2ccc(OC)cc2)C(O)(C(F)(F)F)C1 (stereo not given) | 2 | 1
7 | CCc1nc2n(n1)C(=O)C(C(c1ccccc1F)N1CCCC1)S2 (stereo not given) | 4 | -2
8 | Cc1ccc(NC(=O)Cn2c3ccccc3c(=O)c3ccccc32)c(C)c1 | -7 | -3
9 | COc1ccc(-c2cccc(-c3cccc(NC(=O)COC(C)=O)c3)n2)cc1 | -11 | -7
10 | CCOC(=O)C1(Cc2cccc(Cl)c2)CCCN(C(=O)c2cnsn2)C1 (stereo not given) | -4 | -4
11 | CCCCn1c(N)c(N(CC)C(=O)NC2CCCCC2)c(=O)[nH]c1=O | 4 | 8
12 | CCC(NC(=O)c1cccc(C)n1)c1noc(-c2cccc(Br)c2)n1 (stereo not given) | 98 | -2
13 | COCCn1c(N2CCC(C)CC2)nc2c1c(=O)[nH]c(=O)n2C | 10 | 11
14 | O=C(c1ccco1)N(Cc1csc(COc2cc(Cl)ccc2Cl)n1)C1CC1 | 17 | 9
15 | CC(C)(C)OC(=O)NC1CCN(C(=O)NC2CC2c2ccc(F)cc2)CC1 (stereo not given) | -3 | -2
16 | Fc1cc(Cl)ccc1N1CCN(c2cc(-c3ccccc3)nc3ncnn23)CC1 | 17 | 26
17 | COc1ccc2c(c1)CCc1cc(CCC(=O)NCc3ccc(C)o3)n(-c3ccc4ncsc4c3)c1-2 | 15 | 24
18 | Cc1ccccc1C1=NOC(CN(Cc2cccc(Cl)c2)C(=O)NC(C)(C)C)C1 (stereo not given) | 15 | 12
19 | COCCCNC(=O)C(NC(=O)c1ccccc1F)C1CCN(C(=O)Nc2ccc(C)cc2)CC1 (stereo not given) | -7 | -6
20 | Cc1cccc(CC(=O)N2CCC(n3c(C)nc4ccc(F)cc43)CC2)c1 | -13 | -8

Given with values under each structure: entries from further up.
Results follow in this order: NPYLR7 ag max-min, NPYLR7 ag
8: Cc1ccc(NC(=O)Cn2c3ccccc3c(=O)c3ccccc32)c(C)c1
→ -7, -3
9: COc1ccc(-c2cccc(-c3cccc(NC(=O)COC(C)=O)c3)n2)cc1
→ -11, -7
10: CCOC(=O)C1(Cc2cccc(Cl)c2)CCCN(C(=O)c2cnsn2)C1 (stereo not given)
→ -4, -4
11: CCCCn1c(N)c(N(CC)C(=O)NC2CCCCC2)c(=O)[nH]c1=O
→ 4, 8
12: CCC(NC(=O)c1cccc(C)n1)c1noc(-c2cccc(Br)c2)n1 (stereo not given)
→ 98, -2

More entries follow.
entry | canonical_smiles | NPYLR7 ag max-min | NPYLR7 ag
21 | Cc1ccc(OCC2c3ccsc3CCN2C(=O)CN(C(=O)c2ccco2)C2CC2)c(C)c1 (stereo not given) | 0 | -3
22 | COCCN(CC1CCN(Cc2ccccc2OC)CC1)C(=O)c1ccccn1 | 15 | 14
23 | COc1cccc(CN(C)C(=O)c2sc(=O)n(Cc3cc(Cl)ccc3OC)c2C)c1 | 6 | 8
24 | Cc1cc(C(=O)NNC(=O)c2cc(C3CC3)on2)c(C)o1 | 2 | 2
25 | CCCCCn1c(-c2ccccc2Cl)n[nH]c1=S | 1 | 0
26 | Cn1nc(C(=O)N2CCCC(CCc3ccc(F)cc3)C2)ccc1=O (stereo not given) | 5 | 9
27 | CCN(CC)C(=O)c1cc(C)n2nc(C(C)(C)C)cc2n1 | 14 | 5
28 | CN(C)CC1(O)CCCN(C(=O)c2cc(-c3ccccc3)n(C)n2)CC1 (stereo not given) | -2 | -1
29 | COc1ccccc1C(=O)N1CCN(c2nc(C)nc(C)c2Cc2ccc(F)cc2)CC1 | 11 | 13
30 | Cn1nnc(-c2ccc(-c3n[nH]c(Cc4ccccc4)n3)cc2)n1 | -1 | 2
31 | Cc1ccc(C)c(S(=O)(=O)NN=Cc2ccc(C(F)(F)F)cc2)c1 | -19 | -14
32 | CC(C)(C)c1cc(C(=O)NN=Cc2cccc(O)c2)n(-c2ccccc2)n1 | 0 | 4
33 | CCN=c1scc(-c2cc(OC)ccc2OC)n1/N=C(\C)c1ccco1 | -9 | -3
34 | Cc1cccc(Nc2cc(Nc3cccc(C(=O)N4CCN(CCO)CC4)c3)ncn2)c1 | 7 | 9
35 | Cc1ccc(NC(=O)C23CCC(C)(C(=O)O2)C3(C)C)nc1 (stereo not given) | -5 | -3
36 | O=C(Cn1cnc2c(nnn2-c2cccc(Cl)c2)c1=O)N1CCOCC1 | 11 | 8
37 | CCN(Cc1cccc(C(=O)Nc2c(C)cccc2C)c1)[C@H]1COC[C@@H]1O | 0 | 2
38 | COc1ccc(COC(=O)c2sccc2S(N)(=O)=O)cc1Br | -4 | -2
39 | CS(=O)(=O)N1CCCCC1C(=O)Nc1cccc(F)c1C#N (stereo not given) | -4&1 | -4&4
40 | CNC(=O)[C@@]1(OCc2cccc(Cl)c2)CC(OCc2ccc(F)cc2)[C@H](O)[C@H](O)C1 (stereo not given in full) | 19 | 3

Next part, overlapping the part above by 2 compounds.
entry | canonical_smiles | NPYLR7 ag max-min | NPYLR7 ag
39 | CS(=O)(=O)N1CCCCC1C(=O)Nc1cccc(F)c1C#N (stereo not given) | -4&1 | -4&4
40 | CNC(=O)[C@@]1(OCc2cccc(Cl)c2)CC(OCc2ccc(F)cc2)[C@H](O)[C@H](O)C1 (stereo not given in full) | 19 | 3
41 | COc1ccccc1N1CCN(C(=O)c2csc(CSc3nnc(-c4cccnc4)n3-c3ccccc3F)n2)CC1 | 27 | 11
42 | COc1ccc(N(Cc2ccccc2)S(=O)(=O)c2ccccc2)cc1 | 5 | 7
43 | CC(CCCC(C)(C)O)n1ccnc1-c1ccncc1 (stereo not given) | 0 | -1
44 | c1ccc(C(CCn2cncn2)NC2CCCC2)cc1 (stereo not given) | 1 | 5
45 | CCCN(C(=O)CN1C(=O)NC2(CCCc3ccccc32)C1=O)C1=CCCCC1 (stereo not given) | -1 | 1
46 | Cc1nc(C)c(C(C)NC(=O)C2CCCN2c2nccs2)s1 (stereo not given) | -20 | -22
47 | CCCn1c(C)cc(-c2csc(NC(=O)C3CC3)n2)c1C | 0 | 5
48 | O=C(NCc1ccc(F)cc1)C(=O)NCC(c1ccco1)N1CCN(c2ccccc2)CC1 (stereo not given) | -5 | -4
49 | O=C(CCN(c1nc(-c2ccco2)nc2ccccc12)C1CC1)NCc1ccco1 | 15 | 9
50 | CCS(=O)(=O)N1CCC2(CCCN(Cc3cc(OC)ccc3F)C2)C1 (stereo not given) | 3 | 6
51 | COc1ccc(CNC(=O)C2Cc3ccccc3S2)cc1OC (stereo not given) | -1 | -1
52 | COC(=O)c1cccc(N2C(=O)C3C4CC(C(Br)C4Br)C3C2=O)c1 (stereo not given) | 14 | 22
53 | CC(=O)OCC(=O)[C@@]1(O)[C@H](C)CC2C3CCC4=CC(=O)C=C[C@]4(C)[C@@]3(F)[C@@H](O)C[C@@]21C (stereo not given in full) | -10 | -5
54 | CCn1ncnc1C1CC(=O)Nc2cc(O)c(C)cc21 (stereo not given) | 3 | 2
55 | O=C1c2cccnc2C(=O)N1c1ccc(N2C(=O)c3cccnc3C2=O)c(Cl)c1 | -3 | 0
56 | O=C(Nc1ccc(S(=O)(=O)N2CCOCC2)cc1)c1cc(F)c(F)cc1Cl | 10 | 9
57 | O=C(CCc1ccccc1)NNc1cc(N2CCCCC2)nc(N2CCCCC2)n1 | -20 | -12
58 | NC(=O)NN=C1CCS(=O)(=O)c2ccc(F)cc21 | 6 | 7
59 | COc1ccc(-c2nc3ccc(C)cn3c2NC(=O)C(Cl)Cl)cc1 | 3 | -4
60 | CCOc1nn(CC)cc1C(=O)Nc1cc(C)on1 | -11 | -6
61 | Cc1ccc(C(=O)Nc2ccc(NC(=O)C(C)n3ccnc3C)cc2)o1 (stereo not given) | -4 | -1
62 | C=C(C)CN1C(=O)C(O)(C2SC(N)=NC2=O)c2ccccc21 (stereo not given) | 6 | 8
63 | COC(=O)C1CCN(C(=O)C(c2ccc(Cl)cc2)C(C)C)CC1 (stereo not given) | 7 | 7
64 | CCCCc1ccc(C(=O)N(CC(=O)N(CCc2c[nH]c3ccccc23)Cc2ccc(F)cc2)C(C)C)cc1 | -6 | 2
65 | CCCNC(=O)Cn1c(-c2nnc(C)o2)cc2ccccc21 | -6 | -9
66 | NS(=O)(=O)c1ccc2[nH]c3c(c2c1)CCCC3 | 7 | 12
67 | O=C(NCc1ccccc1CN1CCCC1)NCC(O)c1cccc(F)c1 (stereo not given) | 9 | 12
68 | COCCCNC(=O)c1cc(NC(=O)Nc2c(C(C)C)cccc2C(C)C)ccc1N1CCCCC1 | 34 | 18
69 | COC(=O)c1cc(NC(=O)C2CCCC2)cc(C(=O)OC)c1 | 13 | 0
70 | CC(C)(C)c1csc(CNc2nc(CCN)nc3ccccc23)n1 | 11 | 20
71 | Cc1nc(C)c(CN(C)C2CCCN(CCc3ccccc3)C2)nc1C (stereo not given) | 6 | 16
72 | COc1cccc(-n2nnc3c(N4CCN(C(=O)c5ccc(C(F)(F)F)cc5)CC4)ncnc32)c1 | -15 | -8
73 | Cc1nc(CCn2ccnc2-c2nc[nH]c2C)nc2c1CCC2 | -4 | -2
74 | N=c1ccn2c(n1)O[C@@H]1[C@@H](O)[C@H](CO)O[C@@H]12 | -19&0 | -17&5
75 | C=CCNC(=O)NC1CCN(c2ccccc2C(=O)NCCOC)CC1 | 4 | -1
76 | CCc1ccc(-c2nccn2CCCn2ccnc2)cc1 | 11 | 14
77 | COc1ccc2c(c1)C(NC(=O)CN1CCCN(C)CC1)CC(C)(C)O2 (stereo not given) | 21 | 30
78 | CCOC(=O)c1ccc(NC(=O)C2=C(C)Nc3nc(CCCO)nn3C2c2ccc(OC)cc2)cc1 (stereo not given) | 0 | 3
79 | CCc1nc2ccc(C(=O)Nc3ccc(C(N)=O)cc3)cn2c1N(CC)C(=O)NCCc1ccccc1 | -8 | -2
80 | Clc1ccc(C2=NNC(=NC3CC3)SC2)c(Cl)c1 | 4 | -1

Values in list order from the list:
NPYLR7 ag for entries 75–79: -1, 14, 30, 3, -2
NPYLR7 ag max-min for entries 75–79: 4, 11, 21, 0, -8

Further results:
entry | canonical_smiles | NPYLR7 ag max-min | NPYLR7 ag
81 | CCOc1ncccc1CN1CCCC(C(=O)NCCc2ccc(O)cc2)C1 (stereo not given) | -4 | -2
82 | CC(=O)c1ccc(S(=O)(=O)N[C@@H](C)C(=O)Nc2ccn[nH]2)cc1 | 26 | 30
83 | Cc1cc(S(=O)(=O)Nc2cccc(Br)c2)ccc1Br | -8 | -5
84 | Cc1cc(C)nc(SCc2cc(=O)c(OC(=O)c3ccc([N+](=O)[O-])cc3)co2)n1 | -15 | -16
85 | Cc1ccc(C)c(NC(=O)CC(=O)NCC(c2ccncc2)N2CCOCC2)c1 (stereo not given) | -5 | -2
86 | CN1CCN(c2ccc(C(=O)NC3CCCN(CC4CCCCC4)C3)cc2)CC1 (stereo not given) | -5 | -1
87 | COC(=O)c1sc(N2C(=O)C(O)=C(C(=O)c3cccs3)C2c2ccc(Cl)cc2)nc1C (stereo not given) | -1 | 0
88 | COc1ccc(-c2nnc3n2N(C(C)=O)C(c2cccc(OC)c2)=C(C(C)=O)S3)cc1 | 1 | 3
89 | COc1ccccc1N1CCN(c2ccc(NC(=O)c3ccccc3Br)cc2C(=O)NCc2ccccc2)CC1 | 5 | -2
90 | CCOc1ncccc1CN1CCCC(C(=O)Nc2ccccc2)C1 (stereo not given) | -4 | -1
91 | O=C(NCCc1cnc[nH]1)c1ccc(NC(=O)C2CCC2)cc1 | -2 | 12
92 | Cc1ccc2scc(N3CC(C)CC(C)C3)c(=O)c2c1 (stereo not given) | 3 | 5
93 | COc1cc2nc(CN3CCCCC3)[nH]c(=O)c2cc1OC | -4 | -3
94 | Cc1nn(Cc2ccccc2)c(C)c1C(=O)NC(C)C | 2 | 2
95 | Cn1ncc(NCC2CCC3(CC2)OCCO3)c(Cl)c1=O | 4 | 9
96 | Cc1ccccc1-n1nc(C(C)(C)C)cc1NC(=O)C(Cc1ccccc1)NC(=O)c1cccc(Cl)c1 (stereo not given) | 7 | -1
97 | O=c1c2ccccc2ncn1-c1ccc2nsnc2c1 | 7 | 16
98 | COc1ccc(C(=O)Nc2c(C)nc3ccc(C)cn3c2=O)c(OC)c1 | 1 | 3
99 | Cc1c(C(=O)NCCC#N)cnc2c(-c3c(F)cccc3Cl)cnn12 | -10 | -1
100 | Cc1ccc(S(=O)(=O)Nc2ccc(Nc3cnc(-c4cnc5ccccc5c4)cn3)cc2)cc1 | -7 | -6
101 | COCCCN(CC(=O)N(CCc1ccc(OC)c(OC)c1)Cc1ccc(C)s1)S(=O)(=O)c1ccc(OC)cc1 | -13 | -12
102 | CCN(CC)C(=O)C1CCCN(C(=S)NCCOC)C1 (stereo not given) | -13 | -7
103 | Cc1cc(C)c(S(=O)(=O)NCc2ccccn2)c(C)c1 | -9 | -7
104 | O=C(CCc1ccccc1)N1CC(=O)N(Cc2ccc3c(c2)OCO3)CC(O)C1 (stereo not given) | 29 | 26
105 | Fc1cccc(C2=NC3(CCCCCC3)NC2=S)c1 | 1 | 7
106 | O=S1(=O)CCC(Cn2cc(-c3ccnc4ccccc34)nn2)C1 (stereo not given) | 14 | 17
107 | CCOc1ccc(-n2c(C)c(C)n3c4c(=O)n(CC(C)=O)c(=O)n(C)c4nc23)cc1 | 5 | 6
108 | CCC(c1ccccn1)N(C)CC1CCC(N)CC1 (stereo not given) | -7 | -5
109 | CC(=O)N1CCC(C(=O)Nc2nc(-c3ccc4c(c3)CCC4)cs2)CC1 | 7 | 11
110 | CCCc1cnc2c(c1SC(C)C)c(=O)n(C)c(=O)n2C | -4 | -6

High-throughput results deposited in PubChem by Fisher Drug Discovery Resource Center.
